Screening results: PubChem, National Center for Advancing Translational Sciences (NCATS)
N370S GC: N370S glucocerebrosidase modulation, Gaucher chaperone candidate; P04062; N370S GC spleen homogenate, 4MU-glucoside fluorescence; Potency, µM (titrated, usually from 59.4 µM), for the others: at the top dose activity change, negative = inhibition, hits mostly inhibitors; 0.092% of 330,000 active; AID 2101;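 further: 0% = full enzyme activity and -100% = no enzyme basal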
GCN5L2 inh: GCN5L2 (KAT2A) acetyltransferase inhibition. AID 504327. GCN5L2 HAT assay, ThioGlo1 CoA-SH fluorescence. Potency, µM (series often up to 58.9 µM), for the others: at the highest dose activity change, negative = inhibition, usual class: inhibitors. 0.21% of 390,000 active
Target sequence (Q92830 whole entry, looked up): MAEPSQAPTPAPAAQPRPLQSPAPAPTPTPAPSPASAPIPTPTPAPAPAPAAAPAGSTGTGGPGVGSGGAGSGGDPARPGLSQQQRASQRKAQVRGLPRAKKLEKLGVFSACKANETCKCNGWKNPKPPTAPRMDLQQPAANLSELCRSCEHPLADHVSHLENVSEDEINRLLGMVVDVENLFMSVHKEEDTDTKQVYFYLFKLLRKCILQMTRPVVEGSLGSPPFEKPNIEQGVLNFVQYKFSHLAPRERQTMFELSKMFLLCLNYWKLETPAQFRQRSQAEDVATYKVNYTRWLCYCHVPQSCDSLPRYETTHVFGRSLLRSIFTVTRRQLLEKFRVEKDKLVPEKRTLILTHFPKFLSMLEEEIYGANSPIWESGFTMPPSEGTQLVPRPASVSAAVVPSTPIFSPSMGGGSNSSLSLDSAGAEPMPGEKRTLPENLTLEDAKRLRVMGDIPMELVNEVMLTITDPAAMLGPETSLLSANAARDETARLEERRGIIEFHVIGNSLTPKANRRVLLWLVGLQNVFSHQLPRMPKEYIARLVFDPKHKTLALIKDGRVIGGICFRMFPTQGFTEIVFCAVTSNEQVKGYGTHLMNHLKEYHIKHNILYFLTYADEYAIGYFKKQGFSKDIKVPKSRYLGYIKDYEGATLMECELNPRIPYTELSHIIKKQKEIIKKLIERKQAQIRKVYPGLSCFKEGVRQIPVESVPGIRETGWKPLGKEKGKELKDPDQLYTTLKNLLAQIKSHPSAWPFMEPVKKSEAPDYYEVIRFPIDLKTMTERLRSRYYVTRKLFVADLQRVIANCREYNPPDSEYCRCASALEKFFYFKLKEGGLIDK
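Titration-based screen in which CoA formation is detected via maleimide probe ThioGlo1 (50uM) turning fluorescent on thiol reaction; substrates H3(1-25) 75uM and acetyl-CoA 70uM, GCN5L2 20nM, 20 min incubation at room temperature.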
Active calls of the source: *; ? = inconclusive; · = no result given; & = joins results of further samples; [ ] = dose if it differs, or a comment. The call rests on the fitted dose curve; in most records, active means well fitted curve in the direction sought with a large enough effect; inconclusive means small, poorly fitted or top-dose-only effect, or another doubt; inactive means no such curve, though single readings can be large; an effect the other way counts as inactive or inconclusive. Unless noted, on the % scale 0 is the no-effect control and ±100 the full control effect; potency means the concentration at half of the fitted maximal effect. An excerpt; most or all hits stand in other tables.

Preview:
SMILES	N370S GC	GCN5L2 inh
CCN=C(NCC)SC1CC(=O)N(c2cccc(OC)c2)C1=O (stereo not drawn)	6%	-3%
CCN(CC)S(=O)(=O)c1ccc(-c2nnc(SCc3nnc(-c4ccccc4)o3)o2)cc1	-6%	-1%

The whole of this part, repeating the preview:
SMILES	N370S GC	GCN5L2 inh
CCN=C(NCC)SC1CC(=O)N(c2cccc(OC)c2)C1=O (stereo not drawn)	6%	-3%
CCN(CC)S(=O)(=O)c1ccc(-c2nnc(SCc3nnc(-c4ccccc4)o3)o2)cc1	-6%	-1%
Cc1cc(C(=O)NNC(=O)c2ccc(Cl)c(S(N)(=O)=O)c2)c(C)o1	·	-1%
COC(=O)CNC(=O)c1cc(-c2ccncc2)nc2ccccc12	0%	-2%
COc1ccc(NC(=O)Nc2cccc3c2O[C@H](CN(C)S(=O)(=O)c2cccs2)[C@@H](C)CN([C@H](C)CO)C3=O)cc1	·	3%
CCOC(=O)c1cnc2nc(Cc3ccccc3)[nH]n2c1=O	-6%	-5%
CCN(CC(=O)O)S(=O)(=O)c1cc(Cl)ccc1Cl	0%	4%
CC(C)c1ccc(OCC(=O)NCCO)cc1	3%	0%
CC(=O)N1c2ccccc2CC1C(=O)N1CCN(c2cc(Cl)ccc2C)CC1 (stereo not drawn)	·	2%
CCCCC(=O)Nc1nc2c(OC)ccc(OC)c2s1	1%	-1%
COc1ccc2c3c(cccc13)OC2=O	2%	-3%
O=C(CSc1nc2ccccc2[nH]1)NCc1ccc(F)cc1	12%	-8%
COC(=O)c1ccccc1NC(=O)COC(=O)[C@H](C)NC(N)=O	24%	0%
O=[N+]([O-])c1cc(S(=O)(=O)N2CCCC2)ccc1NN=C1CCCCC1	2%	-3%
CCOc1cc(N2CCOCC2)c(OCC)cc1NC(=O)[C@H](C)N1C(=O)C2CC=CCC2C1=O (stereo partly drawn)	-6%	1%
O=C(CN1CCOCC1)Nc1nc2ccc(F)cc2s1	2%	-10%
Cc1cc(NS(=O)(=O)c2ccc(N)cc2)no1	3%	-1%
COCC(O)CSc1c([N+](=O)[O-])nc(C)n1Cc1ccc(OC)c([N+](=O)[O-])c1 (stereo not drawn)	6%	-6%
Cc1cccc(N(Cc2ccccc2)C(=O)c2cc(S(=O)(=O)N3CCOCC3)ccc2F)c1	-2%	-6%
CC1(C)Cc2ccccc2-c2nc(NCCCO)n(-c3ccccc3)c(=O)c21	9%	-12%
C[C@H](NC(=O)Nc1cccc(C(F)(F)F)c1)C(=O)O	9%	-8%
Cn1c(SCC(=O)NCc2ccco2)nnc1-c1cccs1	-5%	1%
Cc1cc(C)c(N=C2CCCN2Cc2ccccc2)c(C#N)c1	3%	-4%
CC1CCCCC1NC(=O)CSc1nc2ccccc2[nH]1 (stereo not drawn)	-6%	-5%
Cc1cc(=O)[nH]c(SCC(=O)Nc2nc3ccccc3s2)n1	11%	-16%
COc1ccc(C(=O)C2CCCN(C(=O)Cn3ccc(C)n3)C2)cc1OC (stereo not drawn)	-1%	-1%
CCNC(=O)c1cnc2sc(N3CCCCCC3)nn2c1=O	·	-16%
COc1ccccc1N1CCN(C(=O)c2cccc(C(=O)N3CCN(c4ccccc4OC)CC3)c2)CC1	-5%	-3%
CCN(CCO)C1CC(=O)N(c2ccccc2C)C1=O (stereo not drawn)	-1%	-4%
Cc1cc(Oc2ccccc2)nc(NCc2ccccc2)n1	0%	32%[activator]
Cc1ccc(CNC(=O)/C=C/c2c(Cl)cccc2Cl)cc1	1%	1%
O=C(O)CCCC(=O)N1CCN(c2cccc(Cl)c2)CC1	7%	-3%
CCN(Cc1ccc(OC)c(F)c1)C(=O)CCl	15%	-1%
Cc1cccc(C(=O)N2CCCC(N3CCN(c4cccc(Cl)c4)CC3)C2)n1 (stereo not drawn)	-14%	-27%
O=C(OCc1nnc(-c2ccccc2)o1)C12CC3CC(CC(Br)(C3)C1)C2	4%	-8%
Cn1c(SCC(=O)NCc2cccs2)nnc1-c1ccncc1	3%	3%
O=C(O)c1cccc(-c2ccc(/C=N/NC(=O)c3cccnc3)o2)c1	-3%	-14%
O=C(CSCc1c(F)cccc1Cl)NCCSCc1ccco1	3%	-7%
CC(C)c1ccc(S(=O)(=O)c2nnn3c2nc(NCC2CCCO2)c2ccccc23)cc1 (stereo not drawn)	-1%	1%
O=C(Nc1ccccc1)N(Cc1ccccc1)CC(O)C(F)(F)F (stereo not drawn)	5%	-2%

One compound at a time (already shown). Screens in order: N370S GC, GCN5L2 inh
`CC(C)c1ccc(S(=O)(=O)c2nnn3c2nc(NCC2CCCO2)c2ccccc23)cc1` (stereo not drawn) is listed as -1%, 1%
`O=C(Nc1ccccc1)N(Cc1ccccc1)CC(O)C(F)(F)F` (stereo not drawn) is listed as 5%, -2%
`Cn1c(SCC(=O)NCc2cccs2)nnc1-c1ccncc1` is listed as 3%, 3%
`Cc1cc(=O)[nH]c(SCC(=O)Nc2nc3ccccc3s2)n1` is listed as 11%, -16%
`COc1ccccc1N1CCN(C(=O)c2cccc(C(=O)N3CCN(c4ccccc4OC)CC3)c2)CC1` is listed as -5%, -3%

Next section:
SMILES	N370S GC	GCN5L2 inh
CCOC(=O)c1sc(N(Cc2ccccc2)C(=O)CSc2nnc(C3CC3)n2N)nc1C	2%	-2%
Cc1c(N(C)S(=O)(=O)c2cc(C(=O)N3CCCC3)ccc2Cl)c(=O)n(-c2ccccc2)n1C	2%	0%
CC(C)c1cc(-c2nc(-c3ccc(Br)cc3)no2)n[nH]1	·	-9%
Cc1ccc(S(=O)(=O)NCC(=O)N2CCC(C)CC2)cc1	-2%	0%
CCOc1ccc2c(c1)ncn2Cc1ccccc1	9%	-4%
COc1ccc(CNC(=O)CCNS(=O)(=O)c2ccc3c(c2)oc(=O)n3C)cc1	16%	1%&-2%
C=CCONC(=O)Cc1ccccc1	·	-1%
CCn1c(C)nc2cc(C(=O)NN=Cc3ccccc3OC(F)F)ccc21	·	-11%
CC(C)(C)c1ccc(/C=C2\Oc3cc(O)ccc3C2=O)cc1	-12%	-4%
O=C1CCCN1c1ccc(S(=O)(=O)N2CCC(c3ccccc3)CC2)cc1	10%	1%
O=C(Nc1ccc(S(=O)(=O)NCc2ccccc2)cc1)c1ccccc1[N+](=O)[O-]	-9%	-8%
COC(=O)c1c(C)[nH]c(C)c1-c1ccc([N+](=O)[O-])cc1	-24%	-18%
O=C(CN1CCN(Cc2ccc(F)cc2Cl)CC1)NCc1ccccc1	2%	-3%
O=C(NCCc1ccc(Cl)cc1)Nc1ccc(F)cc1	16%	11%
CCOc1ccc2ccccc2c1C1NC(=O)NC(C)=C1C(=O)OCCOC (stereo not drawn)	-6%	-14%
CCOC(=O)c1nn(-c2ccc(F)cc2)c(=O)cc1OCC(=O)Nc1ccc(F)c(F)c1	-9%	-3%
COc1cccc(OCC(O)CN2CCC(Cc3ccccc3)CC2)c1 (stereo not drawn)	1%	5%
CCCCc1ccc(-c2ccc(Br)cc2O)nc1	·	3%
CC(C(=O)NCCc1ccc(S(N)(=O)=O)cc1)N1C(=O)CC(C)(C)Sc2ccccc21 (stereo not drawn)	4%	-4%
Cc1cccc(OCC(=O)Nc2c(C(=O)Nc3ccc(F)cc3)oc3ccccc23)c1	·	-4%

2 entries drawn at random from those above:
SMILES	N370S GC	GCN5L2 inh
O=C1CCCN1c1ccc(S(=O)(=O)N2CCC(c3ccccc3)CC2)cc1	10%	1%
CCn1c(C)nc2cc(C(=O)NN=Cc3ccccc3OC(F)F)ccc21	·	-11%

The listing continues.
SMILES	N370S GC	GCN5L2 inh
N/C(=N\OC(=O)CCCc1ccccc1)c1cccc([N+](=O)[O-])c1	-13%	0%
CCN1CCN(C(=S)NC(C)c2ccccc2)CC1 (stereo not drawn)	11%	0%
COC(=O)C(=Cc1ccccc1[N+](=O)[O-])C(=O)OC	-12%	-14%
Cc1nc2ccccc2c(=O)n1NC(=O)c1c(F)cccc1F	-5%	-17%
Cc1oc(-c2ccc(Cl)cc2)nc1CN1CCC(C(=O)NCC2CCCO2)CC1 (stereo not drawn)	-2%	-2%
C[C@H]1CN([C@@H](C)CO)C(=O)c2cc(NC(=O)C3CCCCC3)ccc2O[C@H]1CN(C)S(=O)(=O)c1ccccc1	·	-2%
COc1ccc(CC(=O)OCC(=O)Nc2ccc(Cl)cn2)cc1	6%	-4%
CCCCOc1ccc(C(=O)Nc2ccc(S(=O)(=O)Nc3nc(C)cc(C)n3)cc2)cc1	·	-7%
COc1cc2c(cc1OC)C(c1cccc(F)c1)CC(=O)N2 (stereo not drawn)	-18%	-16%
Cc1ccc(Cl)cc1N1CCN(C(=O)c2cccn3c(=O)c4cc(Cl)ccc4nc23)CC1	·	-9%
CNS(=O)(=O)c1cccc(C(=O)OCC(=O)c2ccc3c(c2)OCCO3)c1	1%	-7%
COC(=O)C1C(c2ccccc2)C(C(=O)O)C1c1ccccc1 (stereo not drawn)	1%	10%
Cc1cc(S(=O)(=O)N2CCOCC2)ccc1F	-8%	-5%
CCN(c1cccc(C)c1)S(=O)(=O)c1ccc2c(c1)oc(=O)n2C	-11%	-1%
CC(C)(C)NC(=O)CSC(=Nc1ccc(F)cc1)NC#N	-2%	-8%
Cn1cnnc1SCCCN1C(=O)c2cccc3cccc(c23)C1=O	-4%	-5%
CCOc1ccccc1N=Cc1c(O)n(C)c(=O)n(C)c1=O	-1%	1%
COCCN(C(=S)Nc1ccccc1OC)C1CCN(C(C)=O)CC1	8%	1%
COc1ccc(C(=O)NCC(=O)N/N=C/c2ccco2)cc1OC	-2%	-14%
CCOc1ccc(CNC(=O)c2ccc3c(c2)N(CC)CCS3)cc1	?	-4%&-9%
Cc1ccc(C(=O)N2c3ccccc3CC2C)o1 (stereo not drawn)	?	-24%
O=C(COc1ccccc1F)Nc1ccc2[nH]c(=O)[nH]c2c1	-3%	1%
COc1ccc(N2CCN(C(=O)CN3C(=O)c4ccccc4S3(=O)=O)CC2)cc1	1%	0%
c1nc(NC2CCCC2)c2[nH]cnc2n1	-3%	4%
CCN(CC)CCN1C(=O)C(O)=C(C(=O)c2cc3ccccc3o2)C1c1cccnc1 (stereo not drawn)	-6%	-9%
COC(=O)c1ccc(NC(=O)c2cc(S(=O)(=O)N3CCc4ccccc43)cn2C)cc1	·	-5%
O=C(N/N=C1\CCS(=O)(=O)c2ccc(F)cc21)c1ccc(O)cc1	15%	4%
CCOC(=O)Cn1nnc(-c2ccc(SC)cc2)n1	2%	-4%
COc1ccccc1C(C)NC(=O)c1ccccc1SCC(=O)N1CCCC1 (stereo not drawn)	-2%	-12%
Cc1nc(SCC(=O)N(C)Cc2ccco2)c2c(C)c(C)sc2n1	13%	1%
CC1(C)CC(=O)C2=C(C1)OC(/N=C/N1CCCC1)=C(C#N)C2c1ccccc1 (stereo not drawn)	?	0%
O=C(NCCc1ccco1)C(=O)NCC1CCCN1S(=O)(=O)c1ccccc1 (stereo not drawn)	-3%	-2%
CCOCCCNc1ncnc2onc(C)c12	·	1%
Cc1cc(C)cc(-n2nnc(C(=O)NCc3ccccc3)c2N)c1	-5%	-2%
CC(C)C[C@H](NC(=O)[C@H](Cc1ccccc1)n1c(=O)[nH]c2ccccc2c1=O)C(=O)N1CCC[C@H]1C(=O)O	7%	-2%
O=C(N/N=C/c1ccc(F)cc1)c1ccc(OCc2ccccc2)cc1	-10%	-4%
Cn1ncc2c(Nc3ccc(Cl)c(Cl)c3)ncnc21	-3%	-5%
CCOC(=O)c1sc(C)c2c1NC(c1ccc(Cl)cc1)NC2=O (stereo not drawn)	8%	-3%
CC(C)(C)N1C(=O)c2ccc(C(=O)Nc3ccc(C(=O)O)cc3)cc2C1=O	5%	-4%
CCN(Cc1ccccc1)C(=O)COC(=O)c1n[nH]c2ccccc12	3%	-4%
Cc1cc2cc(CN(CCN3CCOCC3)C(=O)Nc3ccccc3F)c(=O)[nH]c2cc1C	-14%	1%
N#Cc1sc2nc3c(c(-c4ccco4)c2c1N)CCCC3	20%	-15%
CCn1c(=O)c2sccc2n2c(CCCC(=O)Nc3ccc(C)cc3)nnc12	·	-3%
CC(C)c1ccc(S(=O)(=O)Nc2ccc3oc4c(c3c2)C(=O)CC(C)(C)C4)cc1	·	-7%
Cn1cccc1Cc1nnc(SCC(=O)NCCc2ccccc2)n1C	1%	-8%
CC(=O)NNC(=O)c1sc(=S)n2c1[nH]c(=O)c1sccc12	-1%	-4%
Cc1ccc(C(=O)C2CCN(CC(=O)NC3CCCCC3)CC2)cc1	2%	0%
COc1cc(Cl)cc(C2NC(=S)NC(c3ccccc3)=C2C(C)=O)c1OCC(=O)O (stereo not drawn)	9%	0%
O=C(COC(=O)c1cc[n+]([O-])cc1)Nc1cccc(Br)c1	0%	-3%
Cc1ccccc1NS(=O)(=O)c1csc(C(N)=O)c1	-30%	10%
NS(=O)(=O)c1ccc(CCNC(=O)CSCc2ccccc2)cc1	3%	-12%
COc1ccc(Br)cc1CN(C)CC(=O)Nc1cc([N+](=O)[O-])ccc1OC	1%	28%
CCOC(=O)CNC(=O)c1c(C)nn(-c2ccccc2)c1Cl	2%	2%
CN1CCN(NC(=O)c2cc(-c3ccc(Br)s3)nc3ccccc23)CC1	-22%	-3%
